# Arbovirus anti: blocks arbovirus infection | arbovirus infection cell-based antiviral screen | inhibition, % at 10 µM | actives 0.37% (n = 200,000) | AID 1251;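 active = inhibition from about 30%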;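 note: bluetongue infection of BSR cells; cell survival read as ATP light after 72 h; 0% = infected wells without compound and 100% = uninfected wells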
# RecA intein inh: inhibitors of M. tuberculosis RecA intein splicing; P9WHJ3; cell-free RecA intein splicing, fluorescence; inhibition, %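 (about 9 µM by stock and volumes)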; actives 0.75% (n = 290,000); in the data active = inhibition above about 30%; inconclusive = no clear call, values can overlap the other calls;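 note: 0% = vehicle wells and 100% = reference inhibitor control wells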
# Target sequence (P9WHJ3 whole entry, looked up): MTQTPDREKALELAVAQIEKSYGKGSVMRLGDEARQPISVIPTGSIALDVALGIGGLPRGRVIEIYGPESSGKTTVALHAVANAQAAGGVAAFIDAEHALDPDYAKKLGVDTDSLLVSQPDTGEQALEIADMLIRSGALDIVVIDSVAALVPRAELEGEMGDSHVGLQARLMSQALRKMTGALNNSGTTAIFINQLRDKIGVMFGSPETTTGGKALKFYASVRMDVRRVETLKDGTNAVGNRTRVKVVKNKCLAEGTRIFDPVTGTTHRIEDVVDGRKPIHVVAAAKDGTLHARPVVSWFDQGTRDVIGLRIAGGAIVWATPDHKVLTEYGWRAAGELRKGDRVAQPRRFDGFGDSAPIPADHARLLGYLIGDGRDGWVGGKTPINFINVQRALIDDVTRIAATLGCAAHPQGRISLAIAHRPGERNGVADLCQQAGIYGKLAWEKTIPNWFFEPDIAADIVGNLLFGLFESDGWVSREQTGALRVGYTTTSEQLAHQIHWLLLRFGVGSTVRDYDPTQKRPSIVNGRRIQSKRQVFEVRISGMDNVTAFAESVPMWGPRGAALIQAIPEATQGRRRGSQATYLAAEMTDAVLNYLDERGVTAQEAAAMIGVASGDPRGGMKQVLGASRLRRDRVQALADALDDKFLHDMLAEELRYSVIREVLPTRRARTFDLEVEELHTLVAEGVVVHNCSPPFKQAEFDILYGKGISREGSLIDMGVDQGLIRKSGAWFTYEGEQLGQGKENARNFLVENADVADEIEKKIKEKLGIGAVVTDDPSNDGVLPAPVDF
# Mtb H37Rv: M. tuberculosis H37Rv growth inhibitors, H37Rv strain (AID 1626) | M. tuberculosis H37Rv growth inhibition; higher % means a stronger effect | actives 0.95% (n = 220,000) | one-dose inhibition, % at 10 µM; IC50 in µM for titrated hits;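 active = confirmed in a dose series; inconclusive = inhibition above 80% but not taken into the dose series; inactive = below 80% or under 30% at every dose of the series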;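 note: bacteria incubated seven days before Alamar blue readout; 0% = bacteria only wells and 100% = bacteria with antibiotic wells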
# YopH inh: blocks Yersinia enterocolitica YopH tyrosine phosphatase; fluorescence Ex485/Em525; inhibition, %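 (about 10 µM by stock and volumes)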; actives 0.16% (n = 140,000); AID 898;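 active = inhibition of 50% or more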;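 note: controls were vehicle for no effect and minimum signal wells for full effect; inactives centre near -20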
# Mtb bLac sens: beta-lactam sensitization of Mtb H37Rv; M. tuberculosis H37Rv growth with meropenem, percent inhibition; hits of this screen are not shown here; inhibition, % at 25 µM; actives 0.27% (n = 330,000); AID 434955;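 active = about 74% or more and at least 40 points above the plate without the antibiotic, then above 30% in a dose series; inconclusive = first-round hits that could not be retested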;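 note: growth measured after seven days incubation then overnight dye step; 0% = bacteria only wells and 100% = bacteria with antibiotic; twin plates without the antibiotic show which effects depend on it; some results filed as inactive read as strong as hits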
# Arbovirus anti repeat: also measured in Arbovirus anti; calls as there; inhibition, %; measured here: 10K subset replicate screen; many hits read low in the repeat;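 first of two repeat runs on a subset; 0% = infected and 100% = uninfected wells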
# The depositor's hits bear a star; ? = inconclusive; / = not tested or not shown; & = joins results of further samples. These rows are one share of the data. The share of hits here may be higher or lower than overall.
SMILES,Arbovirus anti,RecA intein inh,Mtb H37Rv,YopH inh,Mtb bLac sens,others
CCCCNC(=O)[C@@H]1CC=C[C@@H]2CCN(Cc3ccc(Cl)c(Cl)c3)C(=O)[C@@H]21,/,1.3,4%,/,-5,
CCCCNC(=O)CN1C(=O)NC2NC(=O)NC21 (stereo not drawn),1,0.2,3%,-40,-2,
Cc1cc(/C=C(\C#N)C(=O)N2CCCCC2)cc(C)c1O,/,2.2,/,/,-6,
COc1cc(C(=O)Nc2cccnc2)cc(OC)c1OC,/,-1.6,/,/,-7,
O=C(CSCc1c(F)cccc1Cl)Nc1cccnc1,4,-0.6,4%,/,-7,
C=CCN(C(=O)c1cccc(N2C(=O)C3CC=CC(C)C3C2=O)c1)c1ccccc1 (stereo not drawn),30*,0.6,-1%,/,-3,
O=C(Cn1nnc2ccccc2c1=O)NCCc1ccc(Cl)cc1Cl,-21,0.7,0%,-29,2,
O=C1C(Nc2ccccc2)=C(N2CCCCC2)C(=O)c2ccccc21,0,46*,-1%,98*,40,
COc1ccc(Cl)cc1NC(=O)CNc1ccccc1CN(C)C1CCCCC1,12,-0.3,2%,/,69,
CN1CCN(C(=O)/C(=C\c2cccs2)NC(=O)c2cccs2)CC1,0,-2.0,-4%,-22,5,
OC(COc1ccc2ccccc2c1)CN1CCCC1 (stereo not drawn),-1,4.3,7%,-28,-3,
CN1CCN(c2ccc([N+](=O)[O-])c(NCc3ccco3)c2)CC1,-11,1.8,-1%,-28,-3,
COc1cc2ncnc(NCc3cccc(F)c3F)c2cc1OC,/,-3.0,/,/,-2,
O=C(CN(CCO)c1ccccc1)Nc1cccc(S(=O)(=O)N2CCCC2)c1,5,0.3,3%,/,2,
Cc1ccc(CSCC(=O)N(C)CC(=O)Nc2ccccc2C(F)(F)F)cc1,/,2.2,/,/,-13,
CCc1ccccc1NC(=S)N(Cc1cccc(C)c1)c1cccnc1,-7,1.4,/,/,-7,
COc1cc2c(=O)n(CC3CCCO3)c(=O)n(CC(=O)Nc3cccc(Cl)c3)c2cc1OC (stereo not drawn),-6,1.6,1%,0,6,
O=S(=O)(Cc1noc(-c2ccc(Cl)cc2)n1)Cc1ccco1,/,-0.3,-2%,/,-16,
O=C(COC(=O)/C=C/c1ccc(Br)o1)NCCCN1CCCC1=O,15,-1.2,10%,/,-1,
COCCN1C(=O)c2oc3ccccc3c(=O)c2C1c1ccc(OC)c(OC)c1 (stereo not drawn),5,-0.2,-7%,-28,-6,Arbovirus anti repeat=0
CCOP(=O)(OCC)C(O)c1ccc(OC)cc1 (stereo not drawn),/,-0.9,1%,/,-11,
CN=C(Nc1ccc(Cl)cc1)c1ccc(C(F)(F)F)cc1,-3,-1.5,4%,-28,-6,
CCC1CCCCN1CCCNC(=O)CS(=O)(=O)Cc1nc(-c2cccc(OC)c2)oc1C (stereo not drawn),/,-0.8,/,/,-2,
Cc1ccc(-c2onc3ccc(C(=O)/C=C/N(C)C)cc23)cc1,/,-0.1,/,/,2,
COc1ccc2[nH]c(C(=O)Nc3ccc4c(c3)OCO4)cc2c1,/,5.1,2%,/,-5,
CC(C)C(NC(=O)c1ccco1)C(=O)OCc1cc([N+](=O)[O-])cc2c1OCOC2 (stereo not drawn),3,-3.0,1%,/,-1,
O=C(Nc1ccccc1)C1CC(=O)N(c2ccc3c4c(cccc24)CC3)C1 (stereo not drawn),-1,-0.5,5%,-17,1,
Oc1c(Br)cc2oc3c(c2c1CNCc1ccccc1)CCCC3,8,1.4,6%,-16,-6,
COC(=O)CN(n1cnnc1)S(=O)(=O)c1ccccc1Cl,6,/,-11%,-11,0,
N#CCc1c(C#N)c(N)nc(N2CCCC(CO)C2)c1C#N (stereo not drawn),7,-1.4,-3%,/,-13,
CN(C)CCN(Cc1ccccc1)c1ccccn1,7&-4,5.1,-5%&4%,-49,-4,
CN(CC(=O)NCc1cccc(F)c1)C(=O)c1ccco1,-5,-2.3,-7%,-9,-7,
COC(=O)Nc1ccc(S(=O)(=O)NNC(=O)c2c(O)c3ccccc3[nH]c2=O)cc1,/,-1.4,/,/,1,
COc1ccc(S(=O)(=O)N2CCC(C(=O)NCCN3CCOCC3)CC2)cc1OC,/,-1.3,/,/,-2,
COc1cc(-c2cc(N3C(=O)Nc4ccccc4N3O)n[nH]2)cc(OC)c1OC,1,-2.5,-5%,-18,7,
CC[N+](C)(C)Cc1ccccc1Br,0,-1.8,-5%,-55,-2,
COCCSc1nnc(NS(=O)(=O)Cc2ccccc2)s1,5,0.0,-5%,22,1,
Cc1cccc(N(CC(=O)NCc2ccco2)C(=O)CCC(=O)Nc2nccs2)c1,-4,11,-9%,/,-4,
O=C(OC[C@@H]1CCCN2CCCC[C@H]12)c1cc2ccccc2oc1=O,5,0.2,4%,-5,6,
Cc1cc(=O)[nH]c(N/N=C/C=C/c2ccccc2)n1,5,-7.3,1%,/,1,
CCOC(=O)C1CCCN(C(=O)c2ccc(-c3ccc([N+](=O)[O-])cc3)o2)C1 (stereo not drawn),/,-4.5,/,/,81,
CCOC(=O)c1c(C)[nH]c(C=Nc2ccc(OC)cc2)c1O,-5,-2.3,64%,-63,79,
COc1cc(NC(=O)C2CCN(S(=O)(=O)c3ccc4[nH]c(=O)oc4c3)CC2)cc(OC)c1,/,3.5,/,/,-3,
Cc1cccc(-c2nc(CSCC(=O)N3CCN(Cc4ccc5c(c4)OCO5)CC3)c(C)o2)c1,-25,4.7,/,-15,99,
O=C(C1COc2ccccc2O1)N1CCN(c2nc3c(F)cc(F)cc3s2)CC1 (stereo not drawn),/,5.1,/,/,2,
CCOC(=O)C1CCCN(S(=O)(=O)c2ccccc2)C1 (stereo not drawn),2,-0.6,-3%,8,-1,
C[C@]12C[C@H](O)[C@@H]3c4ccc(O)cc4CCC3[C@@H]1CCC2=O (stereo partly drawn),/,-1.6,0%,/,-9,
CCOC(=O)c1ccc(NC(=O)CN2CCc3ccccc3C2)cc1,4,4.2,53%,-24,94,
CCc1nnc(NC(=O)C(CC)c2ccccc2)s1 (stereo not drawn),11,0.8,8%,-31,0,
COc1ccc(/C=C2\NC(=O)C(C=NCc3ccccc3)=C2O)cc1,-29,-1.8,-2%,-19,2,
# (list continues)
SMILES,Arbovirus anti,RecA intein inh,Mtb H37Rv,YopH inh,Mtb bLac sens,others
O=C(O)CCCNCc1ccccc1F,1,/,-8%,-46,/,
COc1ccc2nc(N(Cc3ccccc3)C(=O)CCNC(C)=O)sc2c1,/,5.3,/,/,-3,
COc1ccc(NCc2nnc(SCC(=O)Nc3ccccc3)n2C)cc1,5,-0.9,3%,/,2,
Cn1c(=O)c(=O)n(C)c2cc(S(=O)(=O)CCC(=O)NCc3ccccc3)ccc21,/,0.3,/,/,-7,
CCOC(=O)c1cc(NC(=O)N(C(C)C)C(C)C)c(C)nc1C,-1,3.0,-10%,1,2,
CCc1ccc(OCC(O)CN2CCN(CCO)CC2)cc1 (stereo not drawn),/,-1.1,/,/,6,
COC(=O)c1[nH]c2cc(OC)ccc2c1NC(=O)CN1CCOCC1,-1,1.0,2%,1,/,
NS(=O)(=O)c1cccc(NC(=O)c2ccc3nc[nH]c3c2)c1,/,-0.3,/,/,-5,
O=C(Nc1ccc(F)cc1)c1cc(S(=O)(=O)N2CCCCC2)ccc1F,/,-0.9,/,/,2,
Cc1noc(C)c1S(=O)(=O)N1CCC(C(=O)N(C)Cc2ccccc2)CC1,12,-0.6,-1%,-19,0,
CCC1=C2CC[C@H]3C(=O)N(CC)C(=O)[C@H]3[C@H]2[C@@]2(Cc3ccccc3)C(=O)N(Cc3ccccc3)C(=O)N2C1=O,/,1.4,-5%,/,-3,
Cc1ccc(S(=O)(=O)N2CCC(C(=O)OCc3ccc([N+](=O)[O-])cc3)CC2)cc1,3,-5.8,-7%,-25,-1,
COc1nc(N=C(N)N)nc2ccc(C)cc12,7,-3.2,7%,-28,0,
COc1cccc(S(=O)(=O)NCC(=O)N2CCCC2)c1,/,-0.8,/,/,-15,
CCCSc1nsc(NC(=O)CCC)n1,2,-1.1,7%,/,-6,
CC1(C)Cc2ccccc2-c2nnc(SCC(=O)N3CCN(c4ccccc4)CC3)n21,-4,-4.6,0%,-51,35,
CSc1oc(-c2ccco2)nc1S(=O)(=O)c1ccc(Br)cc1,-6,0.4,0%,-22,-4,
Brc1ccccc1OCCCOc1cccc2cccnc12,/,18,/,/,19,
C=CCc1ccccc1OCC(O)Cn1ccnc1C (stereo not drawn),11,0.9,1%,-45,-7,
COc1ccc(/C=C/C(=O)OCCNC(=O)c2ccncc2)cc1OC,5,-9.5,-10%,/,-4,

# 3 structures out of the list, sorted by molar mass, descending:
SMILES,Arbovirus anti,RecA intein inh,Mtb H37Rv,YopH inh,Mtb bLac sens,others
CCC1=C2CC[C@H]3C(=O)N(CC)C(=O)[C@H]3[C@H]2[C@@]2(Cc3ccccc3)C(=O)N(Cc3ccccc3)C(=O)N2C1=O,/,1.4,-5%,/,-3,
C=CCc1ccccc1OCC(O)Cn1ccnc1C (stereo not drawn),11,0.9,1%,-45,-7,
COc1nc(N=C(N)N)nc2ccc(C)cc12,7,-3.2,7%,-28,0,

# (more compounds)
SMILES,Arbovirus anti,RecA intein inh,Mtb H37Rv,YopH inh,Mtb bLac sens,others
COc1ccc(C(C)=O)cc1CSc1nnc2c(Cl)cc(Cl)cn12,0,1.1,-4%,-21,1,
CC1CCN(c2nc3ccc(C(=O)N4CCN(Cc5ccccc5)CC4)cc3s2)CC1,9,8.6,34%,-30,1,
CS(=O)(=O)c1ccc2nc(NC(=O)c3cccc(Cl)c3)sc2c1,/,0.3,/,/,6,
COCCNC(=S)Nc1ccc(S(=O)(=O)Nc2cnc3ccccc3n2)cc1,1,5.4,-7%,/,0,
O=C(NCc1ccccn1)c1ccco1,21,2.3,2%,/,-2,
COc1cc(/C=N/NC(=O)C(=O)NCc2ccco2)cc(Cl)c1O,/,0.3,1%,/,28,
CCCC(C)n1[nH]c(=O)c2c1NC(=O)CSC2c1ccccc1 (stereo not drawn),/,-0.9,7%,/,-10,
O=C(N/N=C/C=C/c1ccco1)c1cccc([N+](=O)[O-])c1,4,-0.6,-18%,-3,3,
Cc1cc(Cl)n2nc(C)c(-c3ccc(Cl)cc3)c2n1,-23,15,1%,/,1,
COc1ccccc1N(CC(=O)NCCC1=CCCCC1)S(=O)(=O)c1ccccc1,16,1.0,2%,/,7,

# The closing five records of the part before lead into the next.
SMILES,Arbovirus anti,RecA intein inh,Mtb H37Rv,YopH inh,Mtb bLac sens,others
COc1cc(/C=N/NC(=O)C(=O)NCc2ccco2)cc(Cl)c1O,/,0.3,1%,/,28,
CCCC(C)n1[nH]c(=O)c2c1NC(=O)CSC2c1ccccc1 (stereo not drawn),/,-0.9,7%,/,-10,
O=C(N/N=C/C=C/c1ccco1)c1cccc([N+](=O)[O-])c1,4,-0.6,-18%,-3,3,
Cc1cc(Cl)n2nc(C)c(-c3ccc(Cl)cc3)c2n1,-23,15,1%,/,1,
COc1ccccc1N(CC(=O)NCCC1=CCCCC1)S(=O)(=O)c1ccccc1,16,1.0,2%,/,7,
Cc1ccc(C)c(NC(=O)c2cc[n+](C)cc2)c1,/,-2.3,/,/,-4,
O=C(CSc1ccc(F)cc1)Nc1nnc(-c2ccco2)o1,/,-2.6,/,/,8,
O=C(CCC1COc2ccccc2O1)N1CCCC1 (stereo not drawn),7,0.6,-5%,-24,-9,
O=C(Nc1ccc(S(=O)(=O)Nc2nccs2)cc1)c1nn(-c2ccc(F)cc2)ccc1=O,/,1.6,/,/,2,
Cc1nnc(N/N=C/c2ccc([N+](=O)[O-])cc2)n1N,-5,3.7,1%,/,18,
CCSc1nc(-c2ccccc2)nc(C(Cl)Cl)n1,-44,4.6,?,-25,99,
Cc1nc2c(C(=O)N3CCN(C)CC3)cnn2c(C)c1Cc1ccc(Cl)cc1,18,0.1,0%,-16,-8,
CCc1ccc(N2C(=O)C3ON(c4ccccc4)C(c4ccco4)C3C2=O)cc1 (stereo not drawn),-3,2.6,-1%,-55,-5,
OC(c1ccc2c(c1)OCO2)c1nccc2ccccc12 (stereo not drawn),-1,21,2%,-48,-2,
C=CCOC(=O)c1sc(NC(=O)c2ccco2)nc1C,-26,2.0,0%,-22,5,Arbovirus anti repeat=-24
Cc1ccc(COn2c(-c3ccc(Cl)cc3Cl)nc3ncccc32)cc1,-30,16,13%,-7,-4,
O=C(/C=C\c1ccccc1)NCC(=O)N/N=C/c1ccc(O)cc1O,/,-2.0,/,/,2,
COc1ccccc1NC(=O)c1ccc2nsnc2c1,/,-5.2,/,/,9,
CC1Sc2ccc(S(=O)(=O)CCC(=O)Nc3ccc(C(C)C)cc3)cc2NC1=O (stereo not drawn),/,-1.0,/,/,12,
N#CC1=C(N)Oc2c(oc(CO)cc2=O)C1c1cccs1 (stereo not drawn),-3,/,-10%,-32,-4,

# Screens as filed in PubChem.
